# 26S disassembly – blocks ATP-dependent breakdown of the yeast 26S proteasome. anti-FLAG beads, GFP-proteasome disassembly, flow cytometry. hit rate 0.2% among 24,000. inhibition of disassembly, % (concentration not given with the values);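 active means above 40%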;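 further: plate controls were ATP control with full disassembly for no effect and ATP-gamma-S intact proteasomes for full effect; higher percent means more bead fluorescence retained so stronger block of disassembly; stock transfer was 100 nL into about 10 µL; wells with too few beads may also be inconclusive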
# VCAM-1 up – enhancers of VCAM-1 display on endothelial cells, cell-based, plate reader, pooled HUVEC, TNFa stimulus (AID 455); augmentation, % at 5 µM; HUVEC TNFa-induced VCAM-1 immunofluorescence, plate reader; numbers were filed only for top-ranked candidate wells; hit rate 0.2% among 10,000;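 active means a compound raising TNF-alpha-driven VCAM-1 surface staining, with its hit status upheld on visual or statistical review; inactive means the rest, including hits rejected on review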;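 further: 0% = TNFa with vehicle and 100% = strongest image-checked hit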
# Active calls of the source: *; i = inactive; . = no result given.
SMILES,26S disassembly,VCAM-1 up
Cn1nc(-c2ccc(Cl)cc2)c2cc(C(=O)N3CCN(c4ccccn4)CC3)sc21,0.8,.
CCN1CCCC1CNC(=O)CSc1cc(=O)n(CC)c2ccccc12 (stereo not given),-1.5,.
Cc1onc(-c2ccccc2Cl)c1C(=O)Nc1ccc(S(=O)(=O)N2CCCC2)cc1,1.0,.
CC(=O)c1cccc(NS(=O)(=O)c2ccc3c(c2)oc(=O)n3C)c1,-0.3,i
COC(=O)c1[nH]c2c(c1C)C(=O)CC(c1ccc(C)cc1)C2 (stereo not given),0.5,.
COC(=O)C1C(=O)c2c([nH]c(C(=O)OC3CCCCC3)c2C)CC1C (stereo not given),1.6,.
CCN(CC)C(=O)CSC1=C(C#N)C(c2ccco2)C(C(=O)OCCOC)=C(C)N1 (stereo not given),0.9,i
CCOC(=O)CCCn1nc(C)n2c(cc3sccc32)c1=O,0.5,i
COc1ccc(NC(=O)C2CCCN(S(=O)(=O)c3cccnc3)C2)cc1 (stereo not given),-0.6,.
O=C(O)C1CCCN1S(=O)(=O)c1ccc(Br)s1 (stereo not given) (tested in a mixture with another compound),0.5,.
COc1ccc2cc(C(=O)Nc3c(C)n(C)n(-c4ccccc4)c3=O)sc(=O)c2c1OC,-0.5,.
COc1ccc2nc(NC(=O)CCc3nc(-c4ccccc4F)no3)sc2c1,1.2,.
CC(=O)Nc1cccc(NC(=O)CSc2nnnn2C)c1,-1.8,i
O=C(Cn1ccc2ccccc2c1=O)NCCC(=O)Nc1ccc2c(c1)OCCO2,0.9,.
Cc1cc(C)nc(NC2=NCC(=O)N2c2ccccc2Br)n1,-0.5,i
COc1ccc(N2CCN(CCNC(=O)c3cccn4c(=O)c5ccc(Cl)cc5nc34)CC2)cc1,1.7,.
Cc1oc(-c2ccccc2F)nc1CS(=O)(=O)CC(=O)NC1CCCC1,-0.3,.
COCCNC(=O)c1ccc2c(c1)NC(=O)CS2,0.7,.
Brc1ccc(-c2noc(CCc3ccccc3)n2)o1,0.6,.
CCOc1ccc(NC(=O)CN2CCN(CC(=O)c3ccc(OCC)cc3)CC2)cc1,3.7,i
CCCCn1c(SCC(=O)NCc2ccco2)nc2ccc(N3CCOCC3)cc2c1=O,0.9,.
CCCc1cc(C(=O)N2CCN(C(c3ccccc3)c3ccccc3)CC2)no1,1.4,.
O=c1c2cc(N3CCOCC3)ccc2[nH]c(=S)n1Cc1ccco1,1.1,.
O=C(CCN1C(=O)COc2ccccc21)NCCN1CCN(c2cccc(Cl)c2)CC1,1.6,i
O=C(CSc1nnc(-c2ccco2)n1-c1ccccc1)N1CCN(C(=O)c2ccco2)CC1,1.4,i

# The closing 7 entries of the part before lead into the next:
SMILES,26S disassembly,VCAM-1 up
Brc1ccc(-c2noc(CCc3ccccc3)n2)o1,0.6,.
CCOc1ccc(NC(=O)CN2CCN(CC(=O)c3ccc(OCC)cc3)CC2)cc1,3.7,i
CCCCn1c(SCC(=O)NCc2ccco2)nc2ccc(N3CCOCC3)cc2c1=O,0.9,.
CCCc1cc(C(=O)N2CCN(C(c3ccccc3)c3ccccc3)CC2)no1,1.4,.
O=c1c2cc(N3CCOCC3)ccc2[nH]c(=S)n1Cc1ccco1,1.1,.
O=C(CCN1C(=O)COc2ccccc21)NCCN1CCN(c2cccc(Cl)c2)CC1,1.6,i
O=C(CSc1nnc(-c2ccco2)n1-c1ccccc1)N1CCN(C(=O)c2ccco2)CC1,1.4,i
COc1ccc(C2C(C(=O)N3CCCCC3)c3ccccc3C(=O)N2C)cc1 (stereo not given),-1.4,.
Cc1noc(C)c1S(=O)(=O)Nc1ccc(C(=O)O)cc1,1.2,.
CCN1C(=O)c2ccccc2Sc2ccc(C(=O)NCCN3CCOCC3)cc21,0.2,.
Cc1ccc(-n2ncc(C(=O)N3CCc4ccccc4C3)c2NC(=O)c2ccco2)cc1C,-0.4,i
O=C1C2CCCN2C(c2ccccc2)N1c1cccc(Cl)c1 (stereo not given),0.1,.
O=C(CN1CCN(CCOCCO)CC1)N1c2ccccc2Sc2ccc(Cl)cc21,-0.1,.
O=C(NCc1ccco1)c1csc2c1CCCCC2,1.3,.
CC1CC(C)CN(CCCNC(=O)C2CCN(S(=O)(=O)N3CCCCC3)CC2)C1 (stereo not given),0.2,.
CC1CCCC(NC(=O)c2ccc(CNc3c(N4CCCC4)c(=O)c3=O)cc2)C1C (stereo not given),-0.5,.
C=CCn1c(SCC(=O)NC23CC4CC(CC(C4)C2)C3)nc(O)cc1=O,-0.8,i
COc1ccc(C2OC(=O)CC2C(=O)NC2CCCCCC2)cc1OC (stereo not given),-1.0,.
CC1(C)CC(=O)C(C=NCCc2ccc(S(N)(=O)=O)cc2)=C(O)C1,-1.9,i
Cn1c(=O)[nH]c(=O)c2c1nc(CN1CCN(c3cccc(Cl)c3)CC1)n2CCN1CCOCC1,0.6,.
COC(=O)c1cc(NS(=O)(=O)c2ccc3c(c2)CCC(=O)N3)cc(C(=O)OC)c1,0.9,i
COc1ccc(C2c3sc(=O)[nH]c3SC3C(=O)N(c4ccccc4)C(=O)C32)cc1 (stereo not given),0.1,.
Cc1c(C(=O)NCc2cccnc2)oc2ccc(S(=O)(=O)N3CCCCC3)cc12,-0.4,i
Cc1cnc(C(=O)Nc2ccccc2-n2cccc2)cn1,-2.4,i
CCOc1ccccc1C1CC(c2ccccc2)Nc2nc(N)nn21 (stereo not given),-0.3,.
Cc1ccc(-c2nc(CSCC(=O)NCc3cccnc3)c(C)o2)cc1,1.4,.
Cc1c(C(=O)O)oc2ccc(S(=O)(=O)NCCC3=CCCCC3)cc12,-0.4,i
CCOC(=O)c1c(C)c(C(=O)Nc2ccc3c(c2)OCO3)c(C)n1C,2.9,.
COc1ccc(CC(=O)NCc2cccs2)cc1,-1.5,i
O=C(c1ccc(NS(=O)(=O)c2cccs2)cc1)N1CCCCC1,-0.9,i
CCN1CCCC1CNC(=O)Cn1cccc1C(=O)c1ccccc1C (stereo not given),2.1,.
COCCNC(=O)c1cc2c(-c3ccc(Cl)cc3)nn(C)c2s1,0.6,.

# Next section.
SMILES,26S disassembly,VCAM-1 up
Cc1cccc2cc(CN(Cc3nnnn3C3CCCC3)C3CCCCC3)c(=O)[nH]c12,-1.3,i
CCOC(=O)N1CCC(N2C(=O)c3ccccc3C2Nc2ccc3c(C)cc(=O)oc3c2)CC1 (stereo not given),0.2,i
CNC(=O)c1nnc(Cc2ccc(F)cc2)o1,-6.1,.
CCCn1cc(S(=O)(=O)CC(=O)Nc2ccc(OCC)cc2)c2ccccc21,-1.1,.
CC(=O)NCCc1cc2cc(C)c(C)cc2[nH]c1=O,-1.3,.
CCc1ccc(S(=O)(=O)c2n[nH]n3c2nc(=O)c2ccccc23)cc1,-0.1,.
COC(=O)c1c(NC(=O)CSc2nnc(-c3cccnc3)n2Cc2ccco2)sc(C)c1C,0.7,i
O=C(c1cc2c(s1)-c1ccccc1OC2)N1CCN(c2ccccn2)CC1,0.3,.
O=C(CCS(=O)(=O)c1cccc2nonc12)NCCc1ccccc1,-1.4,.
CCn1c(=O)c2cc(C(=O)NCc3cccs3)sc2c2ccccc21,1.4,.
Cc1ccc(CNC(=O)CCS(=O)(=O)c2ccc(Br)s2)o1,0.2,.
CCOC(=O)N1CCN(S(=O)(=O)c2cc(Cl)c(OC)cc2Cl)CC1,-0.2,i
COc1cc(N2C(=O)NC3CC2(C)Oc2ccccc23)cc(OC)c1OC (stereo not given),0.2,.
O=C(Nc1ccc2oc(-c3ccccc3Cl)nc2c1)c1cncc(Br)c1,2.3,.
CCOC(=O)N1CCN(CC(=O)c2ccc3c(c2)CCN3C(C)=O)CC1,-2.9,.
CCN1CCN(c2cc3c(cc2F)c(=O)c(C(=O)O)cn3C2CC2)CC1,-0.1,i
O=C(COc1ccc(Cl)cc1)NCc1nnc(SCC(=O)N2CCCc3ccccc32)o1,1.0,.
CCc1nc(C)c(-c2ccccc2)c(=O)[nH]1,0.9,i
Cn1c(=O)oc2cc(S(=O)(=O)NCCN3CCCCCC3)ccc21,1.2,.
Cc1nc2ccccc2nc1OCC(=O)Nc1cc(C(F)(F)F)ccc1N1CCOCC1,3.4,i
COc1cccc(NC(=O)C2C3C=CC4(O3)C2C(=O)N(C2CC2)C4C(=O)NC2CCCCC2C)c1 (stereo not given),0.8,.
CCOC(=O)N1CCN(C(=O)Cn2ncc3c2-c2ccccc2OC3)CC1,1.3,.
Cc1nc2sc(C(c3ccco3)N3CCc4ccccc4C3)c(O)n2n1 (stereo not given),0.9,.
COc1ccc(-n2nnc3c(SCc4ccccc4)ncnc32)cc1,1.3,.
NC1=NC(c2ccc(Cl)cc2)n2c(nc3ccccc32)N1 (stereo not given),3.5,i

# Some values from the results shown.
# For 26S disassembly, Cc1nc2ccccc2nc1OCC(=O)Nc1cc(C(F)(F)F)ccc1N1CCOCC1 has the entry 3.4
# For 26S disassembly, COc1cc(N2C(=O)NC3CC2(C)Oc2ccccc23)cc(OC)c1OC (stereo not given) has the entry 0.2
# For 26S disassembly, CC(=O)NCCc1cc2cc(C)c(C)cc2[nH]c1=O has the entry -1.3
# For 26S disassembly, O=C(Nc1ccc2oc(-c3ccccc3Cl)nc2c1)c1cncc(Br)c1 has the entry 2.3

# More structures follow.
SMILES,26S disassembly,VCAM-1 up
CN(C)CCC(c1ccc(Br)cc1)c1ccccn1 (stereo not given),-1.3,i
COc1ccc(S(=O)(=O)N2CCSC2c2ccccc2)cc1 (stereo not given),0.1,i
CCC(Sc1ccc2nnc(-c3ccc(OC)c(OC)c3)n2n1)C(=O)O (stereo not given),-0.4,.
CCC1Oc2ccccc2N(CC(=O)NCCCN2CCN(Cc3ccccc3)CC2)C1=O (stereo not given),-0.7,.
CCN(CC)CCn1c(=S)[nH]c2cc(Cl)ccc2c1=O,-2.5,.
COC(=O)c1sc2ccccc2c1C(=O)OC,-1.5,.
COC(=O)c1c(NC(=O)C2CC=CCC2C(=O)O)sc(C(N)=O)c1C (stereo not given),2.6,i
O=S(=O)(Nc1cccc(C(F)(F)F)c1)c1cccnc1,0.2,.
O=C(OCc1ccccc1F)c1ccc2c(c1)OCCO2,-1.3,i
Cn1cnc2c1c(=O)n(Cc1cccc(Br)c1)c(=O)n2C,1.2,i
Cc1cc(NCc2ccccc2Cl)n2nnnc2n1,-1.0,.
Cn1c(C(=O)N2CCN(Cc3ccccc3)CC2)cc2c(=O)n(C)c3ccccc3c21,0.7,.
Nc1nc(-c2ccc(Br)s2)c(Br)s1,2.7,i
O=C1CCn2nc(-c3ccc(Cl)cc3)cc2N1,-0.5,i
Clc1ccc(Nc2nc(NCCN3CCOCC3)nc(N3CCOCC3)n2)cc1,0.0,.
Cn1c(=O)[nH]c(=O)c2c1nc(N1CCOCC1)n2CC(O)COc1ccc2ccccc2c1 (stereo not given),2.6,i
Cc1cc(C(=O)O)sc1C,3.1,.
COc1ccc(NC(=O)CN2CCN(CC(=O)Nc3ccccc3F)CC2)cc1OC,-1.2,.
COC(=O)c1ccccc1S(=O)(=O)N(CCCN1CCOCC1)Cc1cccs1,-0.8,i
Cc1cc(C)cc(OCCCC(=O)O)c1,-2.6,i
CCOC(=O)N1CCN(C(=O)CSc2ncccn2)CC1,-0.6,.
CC(C)c1[nH]nc2c1C(c1ccc(OC(=O)c3ccco3)cc1)C(C#N)=C(N)O2 (stereo not given),-0.1,.
O=C(NC1CCCC1)C1CC(=O)N(CCc2ccccc2)C1 (stereo not given),-2.4,.
COc1ccc(S(=O)(=O)N2CN(Cc3ccco3)c3nc4ccccc4nc32)cc1,1.3,i
Cn1c(=O)c2c(nc(OCc3ccccc3)n2C)n(C)c1=O,-1.8,.

# 3 entries picked at random from those above, as already listed:
SMILES,26S disassembly,VCAM-1 up
COc1ccc(S(=O)(=O)N2CCSC2c2ccccc2)cc1 (stereo not given),0.1,i
Cc1cc(C(=O)O)sc1C,3.1,.
O=C(NC1CCCC1)C1CC(=O)N(CCc2ccccc2)C1 (stereo not given),-2.4,.

# Other structures.
SMILES,26S disassembly,VCAM-1 up
CC(=O)NC(C(=O)NCC(N)=O)C(C)C (stereo not given),0.5,i
CCOc1ccc(CCNC(=O)C2CCCN(C(=O)N(C)C)C2)cc1OCC (stereo not given),-1.2,.
CCOC(=O)N1CCN(c2c(-c3ccc(C)cc3)c(=O)c2=O)CC1,-0.1,.
Cn1c(=O)c2c(nc(Br)n2CCSc2nnnn2-c2ccccc2)n(C)c1=O,-5.8,i
O=C(c1ccc2c(c1)OCO2)N(c1ccc(F)cc1)C1C=CS(=O)(=O)C1 (stereo not given),-0.5,.
O=S1(=O)CC(NCc2ccccc2)C(Nc2ccc(Cl)cc2)C1 (stereo not given),-2.0,.
CCOc1ccc(NC(=O)CCNS(=O)(=O)c2ccc3c(c2)c(=O)n(C)c(=O)n3C)cc1,1.4,.
CCOc1ccc(-n2c(SCC(N)=O)nc3c(c2=O)SCC3)cc1,0.3,.
COc1ccc(S(=O)(=O)N2CCCCC2C(=O)O)cc1OC (stereo not given),-1.3,.
Cc1cccc(NC(=O)CN(C)S(=O)(=O)c2ccccc2)n1,0.6,i
c1ccc(-c2noc(CSc3nnnn3C3CCCCC3)n2)cc1,2.0,.
CC(=O)N1CCc2cc(S(=O)(=O)NC(C(=O)Nc3nc(C)cs3)C(C)C)ccc21 (stereo not given),-1.0,.
Cc1ccc(Cn2c(=O)c3ccccc3n3c(CCC(=O)O)nnc23)cc1,0.4,i
COc1ccc(CNC(=O)CN(C(=O)c2ccc(CN3CCOCC3)o2)C2CCCC2)cc1,1.2,i
O=C(Nc1cccc2ccccc12)c1ccc(Br)o1,-1.1,i
O=C(O)CC(c1ccccc1)n1cnnn1 (stereo not given),0.0,.
O=C(CCSc1nc(-c2ccco2)cc(C(F)(F)F)n1)NCCc1ccccc1,5.0,i
CC1=C(C(=O)OC(C)C)C(c2cccc(F)c2)N2C(=O)C(C)SC2=N1 (stereo not given),0.6,.

# High-throughput results deposited in PubChem by several laboratories.

# The list is partial. The share of hits here may be higher or lower than overall.
